# Screens as filed in PubChem BioAssay.
# PABP polyA inh = PABP-poly(A) binding inhibition | inhibition, % at 35 µM | hit rate 1% among 290,000 | AID 2014 | PABP-poly(A) RNA binding, fluorescence polarization | P11940;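 active means 50% or more with normal probe brightness, or confirmed in later tests; inconclusive means above 50% with abnormal brightness, or retests that disagree; inactive means below 50% or failed in later tests; about a fifth of its hits are not listed in these tables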;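 further: calls also rest on retests at 20 µM and on dose response follow-up; controls were probe without protein and protein plus probe with vehicle; some compounds called inactive have numbers as strong as hits; many hits fall short of the cut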
# Target sequence (P11940 whole entry, looked up): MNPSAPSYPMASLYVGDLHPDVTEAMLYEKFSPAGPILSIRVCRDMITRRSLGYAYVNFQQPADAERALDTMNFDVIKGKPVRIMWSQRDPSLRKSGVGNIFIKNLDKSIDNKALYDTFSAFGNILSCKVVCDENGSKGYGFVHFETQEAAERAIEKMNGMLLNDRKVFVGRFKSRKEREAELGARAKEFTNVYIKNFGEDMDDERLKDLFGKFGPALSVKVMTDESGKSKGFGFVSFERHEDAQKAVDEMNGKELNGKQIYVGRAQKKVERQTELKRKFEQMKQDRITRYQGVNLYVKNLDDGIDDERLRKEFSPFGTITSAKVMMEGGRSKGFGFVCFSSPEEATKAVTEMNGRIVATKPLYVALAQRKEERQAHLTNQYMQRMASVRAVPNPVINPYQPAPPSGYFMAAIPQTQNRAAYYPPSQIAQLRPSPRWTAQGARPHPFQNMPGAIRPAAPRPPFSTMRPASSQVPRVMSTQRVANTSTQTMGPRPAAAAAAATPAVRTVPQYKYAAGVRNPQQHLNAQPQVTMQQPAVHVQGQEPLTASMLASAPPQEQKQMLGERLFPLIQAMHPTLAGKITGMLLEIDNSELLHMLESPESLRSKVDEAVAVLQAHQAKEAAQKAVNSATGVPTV
# MT1-MMP act inh = inhibitors of human MT1-MMP activation. hit rate 0.061% among 360,000. HT1080 RFP-PRO-GFP cells, GFP/RFP ratio fluorescence, overnight; percent of plate control window, DMSO zero. GFP/RFP ratio change, % at 20 µM. P50281;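 active means GFP/RFP ratio change of at least 30% with cell ATP level not reduced by more than half and red fluorescence within 50% of control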; further: strong numbers were not always called active
#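 Assay system – RFP-PRO-GFP reporter HT1080 cells · Compound dosing – single dose of 20 µM compound, 1% DMSO final · Incubation – overnight compound exposure at 37 °C · Measure – GFP/RFP fluorescence ratio · Benchmarks – DMSO wells and RFP-L50D-GFP cells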
# eIF4H inh = inhibitors of RNA binding by human eIF4H. eIF4H fluorescence polarization binding assay. inhibition, % at 35 µM. hit rate 0.94% among 290,000. AID 2012;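 active means 50% or more with normal probe brightness, or confirmed in later tests; inconclusive means above 50% with abnormal brightness, or retests that disagree; inactive means below 50% or failed in later tests; about a fifth of its hits are not listed in these tables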;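 further: calls also rest on retests at 20 µM and on dose response follow-up; 0% = protein and probe with vehicle and 100% = probe without protein; strong numbers were not always called active; many hits fall short of the cut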
# Rce1 inh = inhibitors of yeast Ras-converting enzyme; hit rate 0.27% among 290,000; calls only; AID 2563; Q03530; yeast membranes, quenched prenylated peptide cleavage fluorescence;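 active means fall in fluorescence gain of 50% or more versus controls, with final raw signal at or below 3038400; inconclusive means same 50% fall but final raw signal above 3038400; inactive means fall in fluorescence gain under 50%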;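 further: plate controls were neutral control wells for no effect and wells lacking membranes for full effect; tested at 10 µM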
# Yeast UUG start = modulators of start codon recognition fidelity in yeast. S. cerevisiae UUG-firefly luciferase reporter, luminescence/redox ratio. activity score, % at 18.7 µM. hit rate 0.13% among 350,000;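 active means replicate mean at a twofold rise or more, about +100% in these data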;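 further: firefly luciferase made from a UUG start codon reports start codon fidelity; reporter light over untreated wells divided by growth signal over untreated wells; some hits fall short of that in this replicate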
# CSC inhib = cancer stem cell inhibition; inhibition, % at 7.5 µM; cancer stem cell-like cells viability, luminescence; AID 2717; hit rate 1.1% among 300,000;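 active means mean at 75% or more and at least half the replicates too; inconclusive means mean and replicates disagree; tested in HMLE shEcad cells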;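 further: 0% = median of negative and 100% = median of positive control wells; the first replicate is given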
# Env fusion inh = HIV envelope-mediated fusion inhibition; HeLa-JRFL Env/CEM21 cell fusion, luciferase; inhibition, % at 12.3 µM; hit rate 1.1% among 360,000;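 active means mean replicate inhibition score of at least 50 and every replicate individually at or above 50; inconclusive means only one of the two criteria met; inactive means mean below 50 and not all replicates reaching 50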;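 further: 0% = plate neutral controls and 100% = maraviroc near 300 nM; one replicate is shown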
# eIF4H inh retest = further read-out of eIF4H inh, marked with its call; inhibition, %; compound at 20 µM; confirmation average;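 mean of two retest wells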
# PABP polyA inh retest = also measured in PABP polyA inh; calls as there; inhibition, %; compound at 20 µM; confirmation repeats;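 mean of two retest wells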
# MT1-MMP act inh RFP = second read-out of MT1-MMP act inh, no call of its own (marks repeat the call); RFP signal change, %; measured here: RFP expression control read;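 0 = vehicle wells; hits needed this value within 50% of zero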
# An asterisk follows results filed as active; i = inactive; ? = inconclusive; · = not tested or not shown.
SMILES,PABP polyA inh,MT1-MMP act inh,MT1-MMP act inh RFP,eIF4H inh,Rce1 inh,Yeast UUG start,CSC inhib,Env fusion inh,others
O=C1CC(N2CCN(Cc3ccc4c(c3)OCO4)CC2)C(=O)N1c1cccc(Cl)c1 (centres undefined),-3.2,3.1,-1.0,-9.4,i,-6.4,·,·,
COc1ccc(N2C(=O)c3ccccc3NC2c2ccc(OC)c(Cn3nnc4ccccc43)c2)cc1 (centres undefined),3.7,-7.2,-6.0,-7.3,i,·,8.9,-30.4,
CC(C)[C@@H](C(=O)N[C@@H](C(=O)O)c1ccccc1)N1C(=O)N2CCc3c([nH]c4ccccc34)[C@@]2(C)C1=O,11.0,4.9,2.4,1.1,i,-2.2,-6.6,·,
COc1ccc(NC(=O)NC[C@@H]2CC[C@@H](Cc3ccc(-c4ccccc4)cc3)O2)cc1,·,-10.1,-32.2,·,·,-7.5,·,31.4,
O=[N+]([O-])c1cccc(C(=S)N2CCN(c3ccccc3F)CC2)c1,-0.4,2.5,1.6,12.2,i,·,8.2,-9.2,
Cc1ccccc1CSCCC(=O)NCCC1=CCCCC1,-11.0,17.6,2.2,-2.1,i,14.2,2.4,·,
Cc1ccc(NC(=O)/C(=C\c2cccc([N+](=O)[O-])c2)NC(=O)c2cccs2)cc1,5.4,-1.8,2.4,-1.0,i,557.1*,-13.2,-45.7,
COCCCNC(=O)CC1C[C@H](C(=O)N2CCOCC2)[C@@]2(C)c3[nH]c4ccccc4c3CCN2C1=O (some centres undefined),·,0.5,3.4,·,·,5.1,·,-6.6,
O=C(N=c1ccn(-c2nc3ccccc3nc2NS(=O)(=O)c2ccccc2)cc1)c1ccccc1Cl,?,-17.7,4.9,?,i,-1.4,-14.3,1.1,
COc1ccc(N2CCN(C(=S)Nc3cccc(C)c3)CC2)cc1,-10.2,1.4,-0.8,-12.4,i,-8.1,6.5,·,
Cc1ccc(NC(=O)COC(=O)CN2CSCC2=O)cc1C,6.4,4.9,4.8,-0.3,i,-21.9,-4.3,·,
C=CCC1(CC=C)CCCN1C(=O)CC1C(=O)NCCN1Cc1cccc(OC)c1 (centres undefined),-6.9,-0.4,0.1,-0.5,i,39.0,-7.0,13.4,
Cc1cn(S(=O)(=O)c2ccc(Br)cc2)cn1,7.9,2.4,5.8,-5.3,i,-19.2,-5.7,-101.6,
O=S(=O)(NC1CCCCC1N1CCCCC1)c1ccc(Cl)cc1 (centres undefined),2.5,-4.5,0.9,0.7,i,-1.9,-4.7,2.0,
O=C(N/N=C\c1ccc(CNS(=O)(=O)c2ccc(Cl)cc2)o1)C(=O)Nc1ccc(Oc2ccccc2)cc1,9.0,-6.1,-12.4,43.0,·,·,9.5,·,
COc1ccc(CN2CC[C@H]3C=CCc4cccc(c43)C2)cc1,·,-6.7,0.6,·,·,8.7,12.9,-30.5,
Cc1cccc(NC(=O)CNC(=O)COc2cc(F)ccc2[N+](=O)[O-])c1C,-11.6,-1.0,1.3,7.1,i,·,-9.8,-3.0,
O=C1CCCN1CCCNC(=S)Nc1ccccc1,10.4,1.5,-0.2,-6.4,·,-16.8,9.1,0.5,
Cc1ccc(-c2nc3ccccc3nc2-c2ccccc2)cc1,5.5,-0.9,-7.2,-4.4,i,-11.6,30.3,-129.3,
CC1(C)CC(=O)c2cnn(-c3nc4ccccc4[nH]3)c2C1,-5.2,5.6,1.6,-0.7,i,-5.2,-4.7,-28.1,
CN(CC(=O)NCCC1=CCCCC1)S(=O)(=O)c1ccc2c(c1)CCC(=O)N2,-3.4,12.8,2.4,3.2,i,-9.1,-9.2,11.1,
O=C(CNC(=O)c1ccc(F)cc1)N/N=C/c1ccc(O)c([N+](=O)[O-])c1,4.1,5.2,0.3,-6.3,i,·,-6.6,-11.4,
CCOc1ccccc1NC(=O)C1CCC(=O)N1S(=O)(=O)c1ccc(C)cc1 (centres undefined),0.6,-2.3,4.6,-5.2,i,-8.3,6.0,·,
Cc1ccc(NC(=O)C2CCN(S(=O)(=O)c3c(C)noc3C)CC2)cc1C,3.4,-0.4,-1.1,-3.6,i,·,-10.7,2.5,
Cc1cc2n(n1)C(c1ccccc1)Nc1ccccc1-2 (centres undefined),-4.0,2.5,-5.0,4.4,i,-1.2,-8.3,7.1,
CCCc1cc(=O)[nH]c(SCC(=O)N2CCN(c3ccc(F)cc3)CC2)n1,2.5,3.2,1.1,1.7,i,-5.5,-21.8,·,
Cc1cc(C)cc(NC(=S)N2CCC(C(=O)c3ccc(F)cc3)CC2)c1,·,2.3,7.1,·,·,-13.4,·,8.8,
CCOC(=O)c1cc(C#N)c(N2CCCNCC2)nc1C(F)(F)F,17.2,-3.2,-1.7,5.6,i,-5.4,-13.1,-3.2,
O=C(O)CC(CC(=O)Nc1ccc(-c2ccccc2)cc1)c1ccccc1 (centres undefined),14.1,5.9,5.9,-2.3,i,-14.6,·,0.6,
O=C(Cc1cccs1)N/N=C/C=C\c1ccco1,0.5*,-1.1,9.6,102.6*,i,·,-1.5,-54.6,eIF4H inh retest=92.5*;PABP polyA inh retest=96.5*
Cc1ccc(NS(=O)(=O)c2ccc3c(c2)CC(=O)N3)cc1C,-6.6,7.5,1.1,-9.8,i,-6.3,-0.6,-9.1,
COc1cc(OC)cc(C(=O)N[C@H](C(=O)OCC(=O)Nc2ccc(F)c(F)c2F)C(C)C)c1,-3.6,-2.0,-2.2,-2.7,i,2.0,-13.5,23.7,
O=C(O)c1ccc(CSc2nnc(-c3ccccc3Br)o2)cc1,15.4,-5.0,-3.5,5.3,i,-2.7,-1.7,8.1,
C=CCN1C(=O)CSc2ccc(C(=O)NCc3cccs3)cc21,1.2,-0.2,-3.2,-5.7,i,-0.6,6.8,9.1,
O=C(NCCCn1ccnc1)C(=O)NCC1OCCN1S(=O)(=O)c1ccc2c(c1)OCCO2 (centres undefined),-7.1,-2.6,-9.6,0.5,i,·,-10.6,-27.1,
Cc1cccc(NC(=O)CNC(=O)c2sc3ccccc3c2Cl)n1,·,-0.9,2.6,·,i,-15.9,-3.8,-6.9,
COc1ccc(NC(=O)c2oc3ccc(S(=O)(=O)N4CCC5(CC4)OCCO5)cc3c2C)cc1,5.5,4.2,-14.5,2.4,i,-2.1,0.4,3.2,
CC(C)c1nc(N2CCOCC2)c(C#N)c2c1CCC2,-0.5,-4.7,-2.3,3.5,i,-8.1,·,·,
COC(=O)C(NNc1ccccc1)(NC(=O)c1ccc(F)cc1)C(F)(F)F (centres undefined),-0.8,-0.4,-3.0,-5.2,i,-24.5,-8.4,-62.3,
COc1ccc(S(=O)(=O)N(CCCN2CCOCC2)Cc2ccc(OC)c(OC)c2)cc1,-7.8,4.3,2.1,-5.1,i,-5.1,-9.9,·,
Cc1ccccc1NC(=O)CC1SCCNC1=O (centres undefined),13.6,0.0,7.5,6.1,i,-2.0,4.9,·,
O=c1c2ccccc2nnn1Cc1ccccc1,7.1,-2.3,-0.6,-4.1,i,·,-3.1,-2.0,
CCCNC(=O)C(Cc1ccc(F)cc1)NC(=O)c1ccccc1 (centres undefined),·,-4.6,1.8,·,·,-10.1,1.4,16.2,
O=C(Cn1cncn1)N/N=C/c1cccnc1,-3.8,2.0,1.9,-3.3,i,-22.0,2.1,0.1,
CC(=O)c1sc(NC(=O)c2cc(=O)c3ccccc3o2)nc1C,-10.0,2.1,-1.7,4.7,i,-21.9,-5.3,-0.8,
Nc1ccc2c(c1)C(=O)N(c1cccc3ccccc13)C2=O,-5.0,-4.9,-5.5,6.3,i,10.7,-12.8,-10.2,
O=C(C1=C(O)C(=O)N(Cc2ccco2)C1c1ccccc1)c1cccs1 (centres undefined),11.1,-0.6,-6.6,1.9,i,·,16.3,-2.0,
CC(C)(C)c1ccc(/C=N/NC(=S)NC2CCCCC2)cc1,5.0,-1.3,-10.8,8.8,i,·,-1.9,·,
COc1ccc(CN2C(=O)C(CC(=O)NCCCCc3ccccc3)CC(C(=O)N(C)C)=C2C)cc1 (centres undefined),·,2.7,1.8,·,·,-8.0,·,-15.9,
Cc1cccc(C(C)(C)C)c1OCCCCN1CCCC1,-4.8,7.5,3.7,5.6,·,-10.8,-18.3,-82.5,

# Retrieved by compound from the entries so far:
SMILES,PABP polyA inh,MT1-MMP act inh,MT1-MMP act inh RFP,eIF4H inh,Rce1 inh,Yeast UUG start,CSC inhib,Env fusion inh,others
CC(=O)c1sc(NC(=O)c2cc(=O)c3ccccc3o2)nc1C,-10.0,2.1,-1.7,4.7,i,-21.9,-5.3,-0.8,
COc1ccc(CN2C(=O)C(CC(=O)NCCCCc3ccccc3)CC(C(=O)N(C)C)=C2C)cc1 (centres undefined),·,2.7,1.8,·,·,-8.0,·,-15.9,

# Next part:
SMILES,PABP polyA inh,MT1-MMP act inh,MT1-MMP act inh RFP,eIF4H inh,Rce1 inh,Yeast UUG start,CSC inhib,Env fusion inh,others
N#CCNC1CC(=O)N(c2ccccc2)C1=O (centres undefined),8.4,-4.7,1.0,-0.4,i,-8.5,-20.5,4.8,
CC(C)(C)n1nnnc1C(c1ccnc2ccccc12)N1CCN(C/C=C/c2ccccc2)CC1 (centres undefined),·,-2.1,0.6,·,·,-4.9,·,-80.0,
CCc1nnc(NC(=O)CS(=O)(=O)Cc2ccccc2)s1,2.2,1.6,0.4,6.9,i,·,-17.2,-17.1,
COc1cc(OC)c(N(C)S(=O)(=O)c2cccc(C(=O)Nc3nnc(C4CC4)s3)c2)cc1Cl,-4.0,1.1,-2.1,-5.9,i,·,1.5,18.0,
Cc1ccc(C)c(NC(=O)CS(=O)(=O)c2cn(C)c3ccccc23)c1,0.8,-1.8,-0.8,5.3,i,-6.7,·,·,
Cn1c(=O)n(CC(=O)OCc2ccccc2)c(=O)c2c1nc1n2CCCN1C1CCCCC1,·,5.5,-9.5,·,i,-0.9,37.5,·,
COc1cc(/C=N/NC(=O)CSc2nc3ccccc3n2C)cc(OC)c1OC,-0.1,0.6,0.2,-14.7,i,·,-9.9,24.1,
CC(/C=N/NC(=O)c1nnn(-c2nonc2N)c1C(C)C)=C\c1ccccc1,4.6,4.7,-4.6,-12.2,i,-18.0,31.2,-42.1,
CCCCn1c(CN2CCN(c3cccc(Cl)c3)CC2)nc2c1c(=O)[nH]c(=O)n2C,-7.0,-6.7,-15.8,-3.6,i,-3.5,-7.5,·,
O=C(NCCCN1CCOCC1)c1ccc2c(=O)n(Cc3ccccc3)c(=S)[nH]c2c1,-2.7,5.2,1.7,-14.0,·,-21.8,28.2,28.1,
NC(=O)c1ccc(NCCc2cccs2)cc1,·,1.4,4.4,·,·,-9.0,·,-0.4,
N/C(=N\S(=O)(=O)c1cccs1)c1ccccc1Cl,-5.7,-3.4,1.0,-6.6,i,-0.2,20.0,12.3,
COc1ccc(C(CCN(Cc2ccc(OC)c(OC)c2)C(=O)CCl)c2ccccc2)cc1 (centres undefined),4.6,-11.4,-13.9,-12.9,i,3.9,4.4,·,
CC(/C=C/c1cccs1)=C\C(=O)O,11.9,3.0,1.0,10.3,·,-7.6,-9.5,-4.2,
Cc1ccc(NS(=O)(=O)c2ccc(Cl)c(C(=O)Nc3cccc(C(=O)O)c3)c2)cc1,10.3,0.5,6.1,-8.8,i,2.0,-7.3,-9.0,
CC[N+](C)(CC)CCC(c1ccccc1)C1CCCCC1 (centres undefined),86.6*,-3.8,-4.4,34.0,i,-3.1,-5.2,-1.1,eIF4H inh retest=-0.1;PABP polyA inh retest=92.2*
CC1(C)Cc2ccccc2-c2nnc(-c3cccc(O)c3)n21,-4.7,2.6,2.0,3.4,i,-17.7,-15.5,·,

# Compounds as they come. About 2.9% of those tested had a hit in this group.
